LASV entry inh: qHTS for Inhibitors of binding or entry into cells for Lassa Virus; actives 1.2% (n = 300,000); Lassa virus pseudotype entry inhibition, cell reporter; control for the full effect not named in the record; AID 540256, 2011; Potency, µM (doses to about 37.9 µM), for inactives: at the highest dose activity change, negative = inhibition, hits mostly inhibitors; active means well fitted inhibition curve with a large enough effect; inconclusive means small, poorly fitted or top-dose-only effect, or effect the other way; inactive means flat fitted curve, though single readings scatter; tested in HEK293 cells; further: on the % scale 0 is the no-effect control and ±100 the full control effect; nearly all actives have a fitted effect of over 50% in size; luciferase read-out
SARS PLP yeast: qHTS of Yeast-based Assay for SARS-CoV PLP | S. cerevisiae expressing SARS-CoV PLpro, growth rescue; control for the full effect not named in the record | Potency, µM (titrated, usually from 32.9 µM), for the others: at the top dose activity, positive = growth rescue | actives 0.19% (n = 330,000) | AID 485353, 2010; further: 0% is about no effect; nearly all actives have a fitted effect of over 55% in size; growth read by luminescence after 48 h
Marburg entry inh: qHTS for inhibitors of binding or entry into cells for Marburg Virus | Marburg virus pseudotyped entry inhibition, cell reporter; control for the full effect not named in the record; about a third of the inactives were read at about 46 µM | Potency, µM (doses to about 37.8 µM), for inactives: at the top dose activity change, negative = inhibition, hits mostly inhibitors | actives 1.8% (n = 300,000) | AID 540276, 2011; active = well fitted inhibition curve with a large enough effect; inconclusive = small, poorly fitted or top-dose-only effect, or effect the other way; inactive = flat fitted curve, though single readings scatter; tested in HEK293 cells; about a fifth of its hits are not listed in these tables; further: on the % scale 0 is the no-effect control and ±100 the full control effect; luciferase read-out
StopGo reporter: High Throughput Screening for Foot and Mouth Disease Virus Antivirals | Potency, µM (series often up to 57.9 µM), inactives show at the highest dose signal change, negative = less light | actives 1.2% (n = 410,000) | human cells with a luciferase reporter of 2A StopGo recoding; control for the full effect not named in the record | AID 1159524, 2015; active = well fitted falling curve with a large enough effect; inconclusive = small, poorly fitted or top-dose-only effect; inactive = no such curve, though single readings can be large or run the other way; tested in HEK293T cells; further: on the % scale 0 is the no-effect control and ±100 the full control effect; nearly all actives have a fitted effect of over 45% in size; luciferase light after 4 h
NS1 function inh: qHTS Assay for Inhibitors of Influenza NS1 Protein Function; Potency, µM (doses to about 46.1 µM), without a hit: top-dose activity, positive = more growth; S. cerevisiae slowed by influenza A NS1, growth recovery by OD600; actives 0.4% (n = 270,000); further: actives are rising curves; nearly all actives have a fitted effect of over 50% in size
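In this qHTS, NS1 from influenza A is expressed in budding yeast, where it slows growth. Cells are switched from glucose to 2% galactose medium (pH 6.0, -URA), treated with compound, and growth recovery is read at OD600.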
RE007 growth inh: qHTS Assay for Inhibitors of the HIV-1 protein Vpr; S. pombe RE007 Vpr strain, BacTiter-Glo ATP luminescence, 24 h; control for the full effect not named in the record; Potency, µM (doses to about 92.2 µM), inactives show at the top dose activity change, negative = less growth; actives 0.21% (n = 360,000); active = well fitted falling curve with a large enough effect; inconclusive = small, poorly fitted or top-dose-only effect; inactive = no such curve, though single readings can be large or run the other way;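 further: on the % scale 0 is the no-effect control and ±100 the full control effect; nearly all actives have a fitted effect of over 50% in size; the assay follows cell death caused by Vpr and the record does not say whether a fall means rescue or toxicity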
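Fission yeast RE007 carrying one integrated HIV-1 vpr copy, seeded at OD 0.01 in PMG+AL medium with 23 nL pinned compound. Grown 24 h at 30 degrees; viability read by BacTiter-Glo luminescence after 5 min.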
Cruzain inh Det: qHTS Assay for Promiscuous and Specific Inhibitors of Cruzain (with detergent); Cruzipain (Trypanosoma cruzi), P25779; Potency, µM, inactives show max response, negative = inhibition, most hits filed as inhibitors; AID 1478, 2009; purified cruzain, Z-FR-AMC fluorescence, 0.01% Triton; actives 0.43% (n = 200,000); active means well fitted curve in the direction sought with a large enough effect; inconclusive means small, poorly fitted or top-dose-only effect, or another doubt; inactive means no such curve, though single readings can be large; an effect the other way counts as inactive or inconclusive;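 further: plate controls were neutral wells for no effect and buffer without enzyme for full effect; nearly all actives have a fitted effect of over 40% in size; top concentration of the series not given in the record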
Target sequence (P25779 123-467 limits assumed): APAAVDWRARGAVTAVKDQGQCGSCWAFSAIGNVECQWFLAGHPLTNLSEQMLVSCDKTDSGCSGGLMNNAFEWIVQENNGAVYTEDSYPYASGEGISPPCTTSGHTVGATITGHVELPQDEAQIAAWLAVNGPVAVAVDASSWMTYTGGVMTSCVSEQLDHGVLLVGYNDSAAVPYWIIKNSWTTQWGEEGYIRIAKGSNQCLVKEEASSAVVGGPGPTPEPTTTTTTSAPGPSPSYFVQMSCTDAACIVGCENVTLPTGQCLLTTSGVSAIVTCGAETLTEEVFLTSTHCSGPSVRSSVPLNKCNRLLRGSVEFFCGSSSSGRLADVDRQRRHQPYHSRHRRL
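In this qHTS format, compounds are incubated with 1.5 nM cruzain for 15 min at room temperature before 2 uM Z-FR-AMC is added. Release of AMC is followed at 360/450 nm, and progress is taken as the 60 s fluorescence difference.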
Cruzain noTriton: qHTS Assay for Promiscuous and Specific Inhibitors of Cruzain (without detergent); AID 1476, 2009; actives 2.3% (n = 200,000); Cruzipain (Trypanosoma cruzi), P25779; Potency, µM, without a hit: max response, negative = inhibition, most hits filed as inhibitors; purified cruzain, Z-FR-AMC fluorescence, no detergent; active means well fitted curve in the direction sought with a large enough effect; inconclusive means small, poorly fitted or top-dose-only effect, or another doubt; inactive means no such curve, though single readings can be large; an effect the other way counts as inactive or inconclusive;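 further: plate controls were enzyme without inhibitor for no effect and buffer without enzyme for full effect; nearly all actives have a fitted effect of over 40% in size; top concentration of the series not given in the record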
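Purified cruzain at 1.5 nM, pre-incubated 15 min with compound at room temperature in 100 mM sodium acetate pH 5.5, 5 mM DTT, 0.00005% Triton X-100. Reaction started with 2 uM Z-FR-AMC; AMC fluorescence increase over 60 s gives rate.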
Numbers without * were called inactive; ? = inconclusive; / = not tested or not shown; & = joins results of further samples; [ ] = remark or other dose. Unless noted, the call rests on the fitted dose curve; in most records, active means well fitted rising curve with a large enough effect; inconclusive means small, poorly fitted or top-dose-only effect; inactive means no such curve, though single readings can be large or run the other way. Potency means the concentration at half of the fitted maximal effect.

SMILES	Cruzain noTriton	NS1 function inh	SARS PLP yeast	LASV entry inh	Marburg entry inh	RE007 growth inh	Cruzain inh Det	StopGo reporter
COC(=O)C1Cc2c([nH]c3ccccc23)C2(CCN(Cc3ccccc3)CC2)N1 (stereo unspecified)	/	1.3%	-2.1%	?	?	3.8%	/	-1.2%
O=[N+]([O-])c1ccccc1CN1CCN(c2ncccn2)CC1	/	-3.7%	?	4.8%[46.1 µM]	-1.3%[46.1 µM]	-5.5%	/	18.9%
Cc1ccccc1Cn1cc(S(=O)(=O)c2ccc(F)cc2)c(=O)c2cc3c(cc21)OCO3	-0.5%	/	/	1.0%[46.1 µM]	3.9%[46.1 µM]	/	-1.6%	-2.4%
Cc1ccc(-c2noc(CSc3ccccc3)n2)cc1	-0.1%	1.2%	-10.0%	-21.0%	?	-9.4%	-0.9%	7.5%
COc1ccc2[nH]cc(CCNC(=S)NC3CCCC3)c2c1	/	-5.0%	0.4%	5.8%	?	11.8%	/	19.3%
N#Cc1c(-c2ccc(C(F)(F)F)cc2)cc(-c2ccccc2)[nH]c1=S	-14.8%	10.6%	-9.3%	3.9%	?	12.7%	2.8%	-22.0%
Cc1cccc(-n2ncc3c2CCCC3NC(=O)CCCN2CCCCC2=O)c1C (stereo unspecified)	/	-1.0%	-4.7%	?	?	15.0%	/	?
Cc1ccn2c(=O)cc(COc3ccc(NC(=O)COc4ccc(Cl)cc4)cc3)nc2c1	4.5%	/	/	10.7%[46.1 µM]	/	/	0.8%	-21.5%
O=C(Nc1ccncc1)C1CCN(S(=O)(=O)c2c(Cl)cccc2Cl)CC1	/	/	-5.0%	-20.5%	-2.3%	-3.4%	/	-27.1%
Cc1ccc(-n2cc(CN3CCNC(=O)CC3)c(-c3ccc(F)cc3)n2)cc1	/	-4.0%	0.6%	3.4%	-21.6%[46.1 µM]	6.3%	/	5.5%
COc1cccc(C(CNc2ccc(S(=O)(=O)N3CCN(C)CC3)cc2[N+](=O)[O-])N(C)C)c1 (stereo unspecified)	/	/	0.2%	-11.5%	?	2.0%	/	-9.7%
CC(C)C(=O)Nc1ccccc1-c1nc2ccccc2[nH]c1=O	/	-5.9%	3.1%	/	/	-13.5%	/	18.9%
CCCCNC(=O)c1ccc2c(c1)N=C(CC)c1ccccc1S2	-16.4%	/	/	?	?	/	-7.8%	-9.1%
O=C(O)c1cccc(Nc2ccncc2[N+](=O)[O-])c1	/	5.8%	-0.7%	-1.6%[46.1 µM]	-12.3%[46.1 µM]	14.8%	/	-9.3%
O=C(CN(CC1CCCO1)C(=O)CNS(=O)(=O)c1ccc(F)cc1)NCC1CCCO1 (stereo unspecified)	/	5.5%	-4.6%	11.6%	4.5%[46.1 µM]	7.9%	/	4.6%
CCOC(=O)c1[nH]c2ccccc2c1N=CN(CC)CC	-11.2%	-6.3%	0.3%	28.6%	-8.7%	2.8%	-2.1%	-7.4%
CN(CCOC(=O)c1cccc(Br)c1)C(C)(C)C	-9.7%	6.8%	3.4%	4.4%	1.5%&1.5%	0.5%	-0.4%	-13.6%
COc1ncnc2c1oc1nc(C)c3c(c12)CC(C)(C)OC3	/	3.9%	-0.4%	13.2%	5.5%	-3.9%	/	-6.3%
CCOc1ccc(N/C(N)=N/c2nc(CSc3nnnn3-c3ccccc3)cc(=O)[nH]2)cc1	/	1.3%	6.6%	/	/	3.7%	/	-22.9%
COc1ccc(/C=C2\SC(=O)N(CC(=O)NNC(=O)c3ccccc3O)C2=O)cc1	?	22.7%	7.2%	-1.0%	10.5%	2.9%	-1.1%	33.6%[activator]
O=C(O)c1ccc(S(=O)(=O)c2ccccc2C(=O)O)c([N+](=O)[O-])c1	/	8.8%	3.8%	25.3%[46.1 µM]	4.5%[46.1 µM]	-18.3%	/	-3.5%
O=C(NC(=S)NCCN1CCOCC1)c1ccc(Cl)cc1	-2.9%	8.4%	-13.4%	-21.0%[46.1 µM]	3.6%[46.1 µM]	?	-6.3%	13.1%
Cc1cc(C(=O)N2CCCC2C(=O)O)c(C)o1 (stereo unspecified)	-1.8%	-11.8%	5.9%	23.6%	13.5%	11.3%	0.2%	18.8%
COc1ccccc1-c1cc(C(=O)NCc2ccccc2)c2c(-c3ccc(C)cc3)[nH]nc2n1	-21.9%	/	/	-21.8%[46.1 µM]	/	/	-5.4%	-18.6%
O=C(Nc1nnc(SCc2ccc(Cl)cc2)s1)c1ccco1	?	-19.2%	1.9%	4.1%	9.9%	-28.4%	5.7%	4.1%
Cc1nc(CN(C)C(=O)CC2C(=O)NCCN2Cc2ccc(-c3ccccc3)cc2)cs1 (stereo unspecified)	/	-30.2%	-5.2%	-16.9%	9.7%	11.9%	/	?
O=[N+]([O-])c1ccc(Cl)c(/C=N/Nc2nc(N3CCOCC3)nc(N3CCOCC3)n2)c1	-4.5%	-4.6%	-2.3%	-12.7%	0.0517µM*	-0.1%	-6.4%	8.2%
CC(NC(=O)CN(C)Cc1cccc(F)c1)c1ccccc1 (stereo unspecified)	/	5.2%	5.5%	/	2.1%	-9.2%	/	-6.7%
COCCNCCOc1ccc(C(C)(C)c2ccccc2)cc1	-6.2%	-6.4%	-10.0%	?	?	0.8%	1.9%	-21.8%
Cc1ccccc1N(C(=O)c1ccccn1)C(C(=O)NCc1ccccc1)c1cccnc1 (stereo unspecified)	/	10.7%	1.4%	?	16.2%[46.1 µM]	4.5%	/	3.6%
NCCCC[C@@H]1NC(=O)[C@H](CCC(=O)O)NC(=O)c2cc([N+](=O)[O-])cc(I)c2NCC[C@@H](C(N)=O)NC1=O	3.0%	14.7%	1.1%	-2.3%	?	5.6%	-9.0%	-22.0%
CC1(C)Cc2cccc(OCC(=O)OCC(=O)NCc3ccccc3)c2O1	/	-16.6%	-9.1%	14.8%	?	-28.0%	/	0.0%
Cc1ccc2cccc(S(=O)(=O)n3nc(C)cc3C)c2n1	-0.1%	-5.1%	3.7%	-15.3%	-22.9%	11.0%	-1.0%	14.4%
CCN(CC(=O)Nc1ccc2c(c1)OCCO2)Cc1cc(=O)oc2cc(C)c(C)cc12	-1.7%	-37.0%	-1.8%	?	9.3%&-1.3%	-16.6%	-5.2%	-18.2%
O=C(NCc1ccc(F)cc1)C(c1ccc(Cl)cc1)N(C(=O)c1csnn1)C1CC1 (stereo unspecified)	/	14.1%	1.9%	-3.7%[46.1 µM]	-13.9%[46.1 µM]	-21.6%	/	4.0%
COc1cc(NC(=O)COC(=O)/C=C/c2ccccc2Cl)cc(OC)c1	-6.0%	1.6%	13.8%	?	14.6%	0.9%	-8.7%	-23.2%
COc1ccc(OC2C(=O)N(c3cc(C)ccc3C)C2c2ccc(OC)c(OC)c2)cc1 (stereo unspecified)	?	4.8%	6.2%	3.3%	1.8%	14.0%	-0.6%	3.0%
CC(C)NC(=O)CC(=O)NN=C1CCCCC1	/	-3.8%	0.7%	-24.9%[46.1 µM]	?	3.0%	/	9.6%
COC(=O)C1CCC(=O)N1C(c1ccc(OC)cc1)c1cc(OC)c(OC)c(OC)c1 (stereo unspecified)	/	/	/	?	?	0.8%	/	0.1%
COc1ccc(C(=O)Nc2ccc(S(=O)(=O)N3CCCCC3C)cc2)c(OC)c1OC (stereo unspecified)	83.2%	-47.2%	2.6%	?	?	-3.7%	1.2%	/
O=c1[nH]cnc2c1ncn2-c1ccc(N(CCO)CCO)cc1	/	/	/	12.1%	7.4%	5.3%	/	-12.1%
CC1=C(C#N)C(c2cccnc2)C2=C(N1)c1ccccc1C2=O (stereo unspecified)	/	-2.1%	-0.3%	19.1%	2.2%	-4.9%	/	-13.8%
COc1ccc(-c2nc3n(n2)C(=O)CC(c2ccc(Cl)cc2)S3)cc1 (stereo unspecified)	-3.7%	/	/	1.8%[46.1 µM]	/	/	-3.3%	-12.4%
O=C(Nc1ccc(F)cc1F)c1ccc(COc2c(F)c(F)cc(F)c2F)o1	2.4%	3.6%	-3.3%	11.1%	25.0%	12.8%	-10.4%	/
COc1cc(/C=N/n2c(C3CCCCC3)n[nH]c2=S)cc(Br)c1O	/	9.0%	-1.8%	/	/	3.9%	/	-14.8%
COc1ccc(C(NC(=O)c2c(F)c(F)c(F)c(F)c2F)c2ccccc2)cc1 (stereo unspecified)	6.9%	7.5%	-48.5%	22.4µM*	?	0.4%	-9.7%	?
O=C(NCc1cccnc1)c1ccc(CN2CCc3ccccc3C2)cc1	0.2%	4.3%	?	-10.1%	?	-7.5%	0.2%	?
COc1ccc(C(=O)OCC(=O)Nc2ccc([N+](=O)[O-])cc2OC)c(O)c1	/	-2.0%	0.1%	-17.0%[46.1 µM]	8.7%[46.1 µM]	2.8%	/	-17.6%
COC(=O)c1c(C)nc2c(c(SC)nn2-c2ccccc2)c1N	16.4%	2.0%	17.6%	-9.1%	?	0.3%	-7.8%	-19.1%
C/C=C/C=C(/NC(=O)c1ccccc1)C(=O)Nc1ccccc1	/	5.1%	-5.7%	/	/	10.6%	/	-6.7%
Cc1cc(O)c2c(c1)CC1C3CCC4CC(=O)CCC4(C)C3CC(=O)C21C (stereo unspecified)	/	/	/	13.2%[46.1 µM]	?	-13.1%	/	-15.9%
Cn1c(CCN2CCOCC2)nc2cc(NC(=O)COc3ccc(Cl)cc3)ccc21	-10.5%	-7.0%	-1.4%	-20.1%	?	-10.2%	-3.1%	?
COc1ccc(NC(=O)C(=O)N2N=C3CCCCC3C2(O)C(F)(F)F)cc1 (stereo unspecified)	/	9.3%	0.1%	/	/	0.5%	/	13.7%
CCCc1cc(=O)[nH]c(/N=C(/NC(=O)C(C)N2C(=O)c3ccccc3C2=O)Nc2ccccc2)n1 (stereo unspecified)	14.9%	2.4%	2.4%	-7.3%	-9.2%&-9.2%	3.3%	-2.2%	17.7%

Source: PubChem BioAssay (National Center for Advancing Translational Sciences (NCATS))

The order is random; any-hit rate near 4.7%.
